VCAM-1 down – inhibitors of TNFa-induced VCAM-1 surface display, cell-based, plate reader, pooled HUVEC, TNFa stimulus (AID 454); inhibition, % at 5 µM; hit rate 0.2% among 10,000; HUVEC TNFa-induced VCAM-1 surface immunofluorescence, plate reader; numbers were filed only for top-ranked candidate wells;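 active = compound among top-ranked inhibitors of TNF-induced VCAM-1 adhesion protein staining, with the hit upheld by image or statistical review; inactive = the rest, including hits rejected on review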;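 also: 0% = TNFa with vehicle and 100% = cells without TNFa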
FPRL1 ligand – human FPRL1 ligands by binding competition, primary screen, cell-based, FPR counter-screen, flow cytometry; N-formyl peptide receptor 2 (Homo sapiens), P25090; hit rate 0.3% among 24,000; FPRL1-expressing cells, fluorescent ligand binding inhibition; inhibition, %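 (tested at 6.7 µM)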; AID 441, 2006;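 also: 0% = buffer alone and 100% = receptor blocker peptide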
Target sequence (P25090 whole entry, looked up): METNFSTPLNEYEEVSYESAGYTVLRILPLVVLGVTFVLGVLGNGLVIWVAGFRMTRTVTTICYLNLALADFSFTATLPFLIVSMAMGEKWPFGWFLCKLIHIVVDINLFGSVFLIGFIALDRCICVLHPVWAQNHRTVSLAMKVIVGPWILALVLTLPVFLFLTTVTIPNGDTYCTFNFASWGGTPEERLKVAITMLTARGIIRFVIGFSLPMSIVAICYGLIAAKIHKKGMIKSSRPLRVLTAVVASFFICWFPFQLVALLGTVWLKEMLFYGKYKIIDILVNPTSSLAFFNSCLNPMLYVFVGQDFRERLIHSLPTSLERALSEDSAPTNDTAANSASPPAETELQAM
VCAM-1 augmentation – enhancers of VCAM-1 display on endothelial cells, imaging, high-content imaging, pooled HUVEC, TNFa stimulus (AID 457); Pooled HUVEC, TNFa-induced VCAM-1 immunofluorescence imaging; hits of this screen are not shown here; calls only; hit rate 0.2% among 10,000;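 active = a top-ranked rise in VCAM-1 staining upheld on image or statistical review; inactive = the rest, including candidates rejected on review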;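 also: compounds tested at 5 µM in the well; cells exposed to compound for 24 hours before fixing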
FPR binder – human FPR ligands by binding competition, primary screen, cell-based, FPRL1 counter-screen, flow cytometry; fMet-Leu-Phe receptor (Homo sapiens), P21462; FPR-expressing cells, fluorescent ligand binding; inhibition, %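 (tested at 6.7 µM)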; hit rate 0.74% among 24,000; AID 440, 2006;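 also: 0% = buffer wells and 100% = receptor blocker peptide wells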
Target sequence (P21462 whole entry, looked up): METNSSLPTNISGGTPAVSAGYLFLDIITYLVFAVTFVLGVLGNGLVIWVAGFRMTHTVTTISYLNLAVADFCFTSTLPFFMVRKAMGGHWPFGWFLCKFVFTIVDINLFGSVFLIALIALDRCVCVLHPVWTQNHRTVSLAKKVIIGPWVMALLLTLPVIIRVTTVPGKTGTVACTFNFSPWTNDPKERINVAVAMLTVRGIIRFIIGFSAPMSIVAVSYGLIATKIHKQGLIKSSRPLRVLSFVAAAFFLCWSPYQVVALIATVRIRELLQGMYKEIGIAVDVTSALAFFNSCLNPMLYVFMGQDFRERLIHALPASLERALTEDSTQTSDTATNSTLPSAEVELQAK
VCAM-1 down imaging – inhibitors of TNFa-induced VCAM-1 surface display, imaging, high-content imaging, pooled HUVEC, TNFa stimulus (AID 456). HUVEC TNFa-induced VCAM-1 surface expression, immunofluorescence imaging; numbers were filed only for top-ranked candidate wells. inhibition, % at 5 µM; hits with a dose series show IC50 in µM. hit rate 0.2% among 10,000;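 active = top tenth filtered wells with inhibition above zero that passed visual or statistical confirmation; inactive = the rest, including hits rejected on review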;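 also: 0% = stimulated vehicle wells and 100% = unstimulated cells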
Numbers without * were called inactive; i = inactive; / = no result given.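 The calls were made as follows, unless noted: active = mean above 30%; inconclusive = self-fluorescent; inactive = the rest.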 Some of the compounds tested. The share of hits here may be higher or lower than overall.

SMILES	VCAM-1 down	FPRL1 ligand	VCAM-1 augmentation	FPR binder	VCAM-1 down imaging
Cc1nc2ccccc2c2oc(C(=O)N3CCN(C(=O)c4ccco4)CC3)cc12	i	-3	i	1	i
COc1cc(-n2nc(C)c3c2OC(N)=C(C#N)C3c2ccccc2)c(Cl)c(Br)c1O (configuration not stated)	i	-2	i	36*	i
CCNC(=O)Cn1cnc2c1c(=O)n(C)c(=O)n2C	i	5	i	-2	i
O=C(c1ccco1)N1CCN(C(=O)C2CC(c3ccc(F)cc3)=NO2)CC1 (configuration not stated)	i	3	i	4	i
COc1ccc(-c2cc(C(=O)N3CCCCC3)no2)cc1OC	/	-1	/	-3	/
CCOC(=O)c1[nH]c2c(c1C)C(=O)CC(c1ccc(OCC)c(OC)c1)C2 (configuration not stated)	/	4	/	1	/
CC(=O)Oc1ccc(C(=O)Nc2nccs2)cc1	/	3	/	-3	/
COc1ccc(OC)c(Nc2nc(-c3sc(N)nc3C)cs2)c1	i	-5	i	0	i
NCCCCCNC(=O)/C=N\O	/	7	/	6	/
COc1ccc(C2CC(c3cccc(C)c3)n3nc(N)nc3N2)cc1 (configuration not stated)	/	2	/	5	/
COc1ccc(N2CCN(C(=O)c3ccc(CNc4c(N5CCOCC5)c(=O)c4=O)cc3)CC2)cc1	/	0	/	-1	/
CCn1c(Cc2ccccc2)nnc1SCC(=O)Nc1cc(C)on1	i	0	i	4	i
COc1ccc(N2C(=O)NC3CC2(C)Oc2ccc(Cl)cc23)cc1OC (configuration not stated)	/	12	/	8	/
COc1cc(-c2nnc(SCC(=O)c3ccccc3)o2)cc(OC)c1OC	/	-12	/	-4	/
Cc1onc(-c2ccccc2Cl)c1C(=O)N1CCc2ccccc21	i	2	i	4	i
COCCN1Cc2cccc(C(=O)NC3CCCCCC3)c2C1=O	/	-6	/	-1	/
CCOc1ccc(NC(=O)CSc2nc3cccnc3n2CC)cc1	i	2	i	0	i
COc1ccc(N2CCN(C(=O)c3ccc4c(=O)n(CC5CCCO5)c(=O)[nH]c4c3)CC2)cc1 (configuration not stated)	/	4	/	0	/
N#Cc1nc(COc2ccccc2F)oc1NCc1ccc(F)cc1	/	-6	/	4	/
C=CCOc1cccc(C2c3c(oc4ccccc4c3=O)C(=O)N2c2ccccn2)c1 (configuration not stated)	/	0	/	6	/
O=C(NC1CC1)c1cccc(Nc2ccc(-c3ccc4c(c3)OCCO4)nn2)c1	i	-3	i	-4	i
COc1ccc(CN2C(=O)CN=C2Nc2ccc(C)cc2C)cc1	i	0	i	6	i
Cc1ccccc1Oc1ccc(S(=O)(=O)NCCC(=O)O)cc1	/	-4	/	4	/
CN1CC=C2C(C#N)=C(N)C(C#N)(C#N)C(c3cccc(Cl)c3Cl)C2C1 (configuration not stated)	i	-8	i	-4	i
COCCCN1C(=O)C(=O)/C(=C(/O)c2ccc3c(c2)OCCO3)C1c1ccc(C(=O)OC)cc1 (configuration not stated)	/	0	/	-4	/

(cont.)
SMILES	VCAM-1 down	FPRL1 ligand	VCAM-1 augmentation	FPR binder	VCAM-1 down imaging
Cc1cc(-c2ccco2)n(CC(=O)NCc2ccco2)n1	/	1	/	-3	/
CCC(=O)N1CCc2cc(S(=O)(=O)N3CCc4ccccc4C3)ccc21	/	1	/	2	/
CN(c1ccc(F)cc1)S(=O)(=O)c1ccc2[nH]cc(C(=O)O)c(=O)c2c1	/	-2	/	1	/
COc1ccccc1N1CCN(CC(O)COc2cccc3ccccc23)CC1 (configuration not stated)	i	0	i	4	i
Nc1c(C2=NCCO2)nnn1Cc1ccccc1	i	4	i	-3	i
O=C(Nc1nsc(-c2ccccc2)n1)c1cccs1	/	2	/	6	/
O=C(CSc1nnc2scc(-c3ccccc3)n12)Nc1nsc(-c2ccccc2)n1	i	-4	i	4	i
Cc1ccccc1-c1nc(CS(=O)(=O)CC(=O)NCc2ccc3c(c2)OCO3)c(C)o1	i	0	i	3	i
COC(=O)CC1Oc2ccccc2N(Cc2ccccc2)C1=O (configuration not stated)	/	-9	/	3	/
O=C(CSc1ncn[nH]1)Nc1nnc(-c2ccccc2)s1	/	11	/	8	/
CCCCCC1CC(CC#CCN2CCOCC2)C(=O)O1 (configuration not stated)	i	8	i	0	i
Cc1nc2cc(N3CCCCC3)c(NC(=O)c3cccnc3)cc2c(=O)n1Cc1ccccc1	i	3	i	8	i
Cc1ccc(-n2nc3c(c2NC(=O)C(C)(C)C)CSC3)c(C)c1	/	8	/	0	/
O=C(O)c1cc2cc(F)ccc2[nH]1	i	-1	i	-6	i
COc1ccc(C2CC(c3ccc(Cl)cc3)n3nc(N)nc3N2)cc1 (configuration not stated)	/	0	/	2	/
COc1ccc(/C=C/C(O)=C2/C(=O)N(C)C3(C)CC2c2ccccc2O3)cc1 (configuration not stated)	/	0	/	-6	/
Cc1cccc(-n2ncc3c(N4CCC5(CC4)OCCO5)ncnc32)c1	i	-6	i	-1	i
O=C(Cn1cccc1C(=O)c1ccccc1)NCc1cccnc1	/	4	/	-2	/
CC(=O)NCC(=O)N(C)C(C(=O)Nc1ccc2c(c1)OCCO2)c1ccccc1 (configuration not stated)	/	3	/	-6	/
CC1CCCC(C)N1C(=O)Cn1c(=O)sc2ccccc21 (configuration not stated)	/	12	/	-3	/
C[N+]12CCC(CC1)C(OC(=O)C(O)(c1ccccc1)c1ccccc1)C2 (configuration not stated)	i	-3	i	1	i
Cc1ccc2c(COn3nnc4ccc(S(=O)(=O)N(C)C)cc43)cc(=O)oc2c1C	i	-1	i	0	i
CCn1c(NCc2ccc(N(C)C)cc2)nc2ccccc21	i	-6	i	0	i
Cc1ccc(-c2noc(C3CCCN(C(=O)c4ccc(F)cc4F)C3)n2)cc1 (configuration not stated)	i	4	i	0	i
CCCCNC(=O)CC(NS(=O)(=O)c1ccc(C)cc1)c1ccco1 (configuration not stated)	/	2	/	-1	/

(next part)
SMILES	VCAM-1 down	FPRL1 ligand	VCAM-1 augmentation	FPR binder	VCAM-1 down imaging
O=C(NCCN1CCCC1)C1(S(=O)(=O)c2ccc(Cl)cc2)CC1	/	21	/	-3	/
CCC(=O)Nc1nonc1-c1nc2ccccc2n1N(C(=O)CC)C(=O)CC	/	9	/	3	/
COC(=O)c1ccc2c(c1)NC(=O)C(N1CCCC1)S2 (configuration not stated)	/	-12	/	-17	/
CCN1CCN(CCCNC(=O)C(NC(=O)C2CCC(C)CC2)C(C)C)CC1 (configuration not stated)	/	5	/	-3	/
CCOC(=O)c1sc2nc(CC(=O)OC)nc(NCc3ccco3)c2c1C	/	-4	/	11	/
CCS(=O)(=O)N1CCC(C(=O)NCCc2ccc(C)cc2)CC1	i	1	i	-3	i
Cc1cccc(OCCCC(=O)O)c1	i	3	i	-6	i
CCCN(CCC)CCNC(=O)C1CCCN(S(=O)(=O)c2ccc3c(c2)oc(=O)n3C)C1 (configuration not stated)	/	9	/	-7	/
O=C(NCc1ccncc1)c1cccc(Cn2cc(Br)cn2)c1	/	14	/	2	/
COC(=O)c1nn(-c2ccc(-c3ccccc3)cc2)cc1O	i	-4	i	-13	i
Cc1cc(C)nc(SCc2nnc(SCC(=O)Nc3ncc(C)s3)n2Cc2ccco2)n1	i	-4	i	-1	i
O=C(Nc1ccc2c(c1)OCO2)C1CCCCN1S(=O)(=O)c1ccc(F)cc1 (configuration not stated)	/	7	/	2	/
CCOc1ccc(/C(O)=C2\C(=O)C(=O)N(c3cc(C)on3)C2c2ccccc2OC)cc1 (configuration not stated)	/	-4	/	0	/
CCOc1ccc(CSC(CC(=O)O)C(=O)O)cc1 (configuration not stated)	i	-5	i	-8	i
OC(COc1ccc2ccccc2c1)CN1CCOCC1 (configuration not stated)	i	0	i	4	i
COCc1ccccc1Cn1cnc2c1c(=O)n(C)c(=O)n2C	i	11	i	7	i
CCOc1cc2[nH]c(=O)n(CCCCCC(=O)NCc3ccc4c(c3)OCO4)c(=O)c2cc1OCC	/	-2	/	-11	/
COc1ccc(C2C(C(=O)c3ccco3)=C(O)C(=O)N2CCc2ccccc2)cc1OC (configuration not stated)	/	-6	/	80*	/
CCc1ccc(NC(=O)Cn2c(=O)n(CCCC(=O)NCc3ccco3)c(=O)c3ccccc32)cc1	/	-3	/	1	/
COc1ccc(OC)c(CNC(=O)CCc2nc(-c3cccs3)no2)c1	/	-1	/	2	/
O=c1c2cc(Cl)ccc2[nH]c(=S)n1Cc1ccco1	i	-1	i	-4	i
O=C(NCc1ccco1)c1cccc(S(=O)(=O)N2CCCCC2)c1	i	5	i	-6	i
O=C(NCN1C(=O)C2C3C=CC(C3)C2C1=O)Nc1nccs1 (configuration not stated)	/	-1	/	4	/
O=C(c1csc2ccccc12)N1CCN(c2ccccn2)CC1	/	-10	/	-6	/
O=C(Nc1ccccc1N1CCN(C(=O)c2ccc(Cl)cc2)CC1)c1cc2ccccc2o1	i	14	i	0	i

Next section; the last five above are carried over.
SMILES	VCAM-1 down	FPRL1 ligand	VCAM-1 augmentation	FPR binder	VCAM-1 down imaging
O=c1c2cc(Cl)ccc2[nH]c(=S)n1Cc1ccco1	i	-1	i	-4	i
O=C(NCc1ccco1)c1cccc(S(=O)(=O)N2CCCCC2)c1	i	5	i	-6	i
O=C(NCN1C(=O)C2C3C=CC(C3)C2C1=O)Nc1nccs1 (configuration not stated)	/	-1	/	4	/
O=C(c1csc2ccccc12)N1CCN(c2ccccn2)CC1	/	-10	/	-6	/
O=C(Nc1ccccc1N1CCN(C(=O)c2ccc(Cl)cc2)CC1)c1cc2ccccc2o1	i	14	i	0	i
Cc1cccc(-c2nsc(SCC(=O)NCc3ccco3)n2)c1	/	-3	/	3	/
CCOC(=O)C(CC)Sc1nc(-c2ccc(OC)cc2)nc2c1c(=O)n(C)c(=O)n2C (configuration not stated)	/	6	/	-2	/
COc1ccc(-n2nc(C(=O)N3CCN(Cc4ccc5c(c4)OCO5)CC3)c3ccccc3c2=O)cc1	/	-16	/	2	/
Cc1ccc(C)c(N(CC(=O)NC2CCCC2)C(=O)CCCC(=O)Nc2ccccn2)c1	i	2	i	6	i
Cn1c(=O)oc2cc(S(=O)(=O)NC(Cc3ccccc3)C(=O)N3CCCCC3)ccc21 (configuration not stated)	/	-4	/	0	/
CCOCCCNC(=O)c1ccc(CS(=O)(=O)Cc2cccc(C)c2)o1	/	-4	/	-1	/
CCCCc1cc(=O)oc2cc(C)cc(OC(C)C(=O)O)c12 (configuration not stated)	i	0	i	-2	i
CCOC(=O)c1cc2cc(F)ccc2nc1C	i	-1	i	-5	i
O=C(c1ccc(Br)cc1)N1CCN(S(=O)(=O)c2ccccc2)CC1	i	2	i	-5	i
O=C1CC(c2cccc(Br)c2)C2=C(CCCC2=O)N1 (configuration not stated)	/	3	/	-1	/
COc1ccc(OC)c(-c2cc(C(=O)N3CCc4ccccc4C3)no2)c1	/	4	/	1	/
Cc1[nH]nc2c1C(c1cn[nH]c1-c1ccc(F)cc1)C(C#N)=C(N)O2 (configuration not stated)	/	2	/	-4	/
CCOc1ccccc1OCC(=O)Nc1ccc(S(=O)(=O)Nc2nc(C)cc(C)n2)cc1	/	4	/	9	/
COc1cc(OC)cc(-n2nc(C(=O)NCCCN3CCOCC3)c3ccccc3c2=O)c1	/	-8	/	5	/
CCn1c(Cc2ccc(OC)cc2)nnc1SCC(=O)Nc1cccc(C(=O)OC)c1	i	-1	i	2	i
CN1C(=O)c2ccccc2Sc2ccc(NC(=O)N3CCCC3)cc21	/	0	/	-4	/
CCOC(=O)C1CCN(c2c(Nc3ccc4c(c3)OCCO4)c(=O)c2=O)CC1	i	-2	i	-9	i
CCOC(=O)C1C2C=CC3(CN(c4cccc(Cl)c4)C(=O)C13)O2 (configuration not stated)	i	-3	i	5	i
Cc1cc(=O)oc2ccc(OCC(=O)N(Cc3ccc(F)cc3)Cc3ccco3)cc12	i	3	i	-2	i
CCOC(=O)C1CCCN(C(=O)CCCOc2cc(=O)n(C)c3ccccc23)C1 (configuration not stated)	/	-2	/	4	/
Cc1ccc(-c2cc(C(=O)Nc3cc(C)on3)c3ccccc3n2)c(C)c1	i	3	i	4	i
CC(C)CN(C#N)c1nc(N2CCOCC2)nc(N2CCOCC2)n1	/	1	/	-1	/

Pulled by structure from the list above (3):
SMILES	VCAM-1 down	FPRL1 ligand	VCAM-1 augmentation	FPR binder	VCAM-1 down imaging
COc1ccc(-n2nc(C(=O)N3CCN(Cc4ccc5c(c4)OCO5)CC3)c3ccccc3c2=O)cc1	/	-16	/	2	/
CCn1c(Cc2ccc(OC)cc2)nnc1SCC(=O)Nc1cccc(C(=O)OC)c1	i	-1	i	2	i
COc1cc(OC)cc(-n2nc(C(=O)NCCCN3CCOCC3)c3ccccc3c2=O)c1	/	-8	/	5	/
